# Bioassay records deposited in PubChem by several laboratories.
# RGS16-Gao: regulators of human RGS16-Galphao interaction | binding response (% of control), % at 10 µM | 220,000 tested, 0.38% active | O15492+P09471 | bead-based flow cytometry RGS16-Galphao binding, fluorescence; actives lie on both sides;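 active means below 25% or above 175%, edge rows of some plates excepted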;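 further: Galphao activated by GDP with aluminum fluoride before binding; 100% = wells without compound and 0% = beads without RGS; some results beyond the cut were filed as inactive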
# PKD1 inh: PKD1 (human) kinase inhibition; 200,000 tested, 0.056% active; Q15139; inhibition, %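 (about 10 µM by stock and volumes)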; PKD1 kinase fluorescence polarization assay;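 active means inhibition of 50% or more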;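 further: controls were vehicle for no effect and a reference inhibitor for full effect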
# Target sequence (Q15139 whole entry, looked up): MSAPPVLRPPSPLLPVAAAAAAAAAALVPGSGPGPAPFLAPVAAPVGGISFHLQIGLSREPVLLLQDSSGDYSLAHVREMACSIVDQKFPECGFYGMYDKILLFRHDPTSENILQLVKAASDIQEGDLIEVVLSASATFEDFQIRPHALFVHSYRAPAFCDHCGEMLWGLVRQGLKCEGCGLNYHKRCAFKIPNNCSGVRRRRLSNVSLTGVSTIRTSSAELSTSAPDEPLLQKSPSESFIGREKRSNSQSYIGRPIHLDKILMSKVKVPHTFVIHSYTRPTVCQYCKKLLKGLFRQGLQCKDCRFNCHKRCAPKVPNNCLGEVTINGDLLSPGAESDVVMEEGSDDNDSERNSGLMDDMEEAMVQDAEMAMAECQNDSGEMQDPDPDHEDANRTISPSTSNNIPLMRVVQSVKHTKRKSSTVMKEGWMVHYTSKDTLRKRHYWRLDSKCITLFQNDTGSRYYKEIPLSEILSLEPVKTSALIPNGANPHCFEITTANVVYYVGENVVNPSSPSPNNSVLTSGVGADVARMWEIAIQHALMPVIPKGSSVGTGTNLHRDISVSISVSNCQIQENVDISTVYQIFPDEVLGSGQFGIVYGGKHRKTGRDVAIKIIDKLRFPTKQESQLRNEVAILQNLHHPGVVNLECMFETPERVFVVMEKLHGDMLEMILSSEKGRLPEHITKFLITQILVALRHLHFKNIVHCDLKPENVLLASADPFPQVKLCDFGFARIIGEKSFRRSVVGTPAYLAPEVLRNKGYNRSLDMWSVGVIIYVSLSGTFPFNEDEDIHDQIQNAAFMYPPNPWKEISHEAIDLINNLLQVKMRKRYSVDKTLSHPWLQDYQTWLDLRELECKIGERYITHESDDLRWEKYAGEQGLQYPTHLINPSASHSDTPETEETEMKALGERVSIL
# Insulin prom inh: TRM-6 insulin promoter activity inhibition | TRM-6 cells (human fetal islet line), insulin promoter-eGFP reporter, imaging; reporter expression induced with tamoxifen | inhibition, % at 2 µM | 130,000 tested, 0.9% active;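 active means inhibition above the mean plus 3 SD, with well images judged a real hit on visual review, cut at about 60% in these data, passing the limit was not always enough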
# HSV replic up: increases HSV replication in cells. HSV replication augmentation in cells, fold increase. maximum fold increase. 220,000 tested, 0.005% active;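 active means peak rise of 1.5-fold or more in the series; tested in PC3 cells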;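 further: first round at 10 µM; read as green reporter fluorescence; hits show the peak of a series up to 25 µM; 1 = signal of infected wells without compound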
# GALR2 agonist: activates the human galanin receptor 2; GALR2-expressing cells, agonist activation read-out; activation, %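 (tested at 5 µM)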; 140,000 tested, 0.48% active; AID 803;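 active means above mean plus 3 SD of all compounds, about 5% in these data, not always enough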;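 further: 0% = vehicle buffer wells and 100% = reference agonist at full effect; tested in CHO reporter cells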
# Insulin prom inh cell count: second read-out of Insulin prom inh, no call of its own (marks repeat the call); normalized cell count, %; measured here: cell count, toxicity; reference of the scale not given here;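 cells exposed to compound for 48 h; stained nuclei by imaging scaled within each plate; lower means fewer cells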
# HSV replic up primary fold: second read-out of HSV replic up, no call of its own (marks repeat the call); fold increase; compound at 10 µM; measured here: primary screen fold increase 10 uM; tested in PC3 cells;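 GFP signal in the first replicate; 1 = infected wells without compound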
# The depositor's hits bear a star; i = inactive; nt = no result given.
# A first look, 14 compounds:
No.	smiles	PKD1 inh	Insulin prom inh	Insulin prom inh cell count	HSV replic up primary fold
1	COc1cccc(/C=N/NC(=O)c2cnccn2)c1O	nt	nt	nt	0.9
2	COc1c(O)ccc(C2NC(=O)NC(C)=C2C(=O)Nc2ccccc2C)c1[N+](=O)[O-] (configuration not stated)	-2	nt	nt	1.1
3	COc1ccc(CCNC(=O)COC(=O)c2ccc(Br)o2)cc1OC	-3	14	129	0.95
4	CC1(C)Cc2c(sc(NC(=O)Cc3ccccc3)c2C#N)CO1	nt	nt	nt	0.86
5	CC(=O)Nc1ccc(S(=O)(=O)N(C)CC(=O)N/N=C/c2cccc(O)c2)cc1	-2	nt	nt	1.1
6	CCC(CC)c1nnc(NC(=O)Cc2ccccc2[N+](=O)[O-])s1	1	nt	nt	0.95
7	Cc1ccccc1N(CC(=O)Nc1ccc(S(=O)(=O)N2CCOCC2)cc1)S(C)(=O)=O	4	nt	nt	1
8	CCOP(=O)(OCC)c1nc(-c2ccc(C)cc2)oc1N1CCOCC1	-11	34	51	1
9	Cn1nc([N+](=O)[O-])nc1Sc1cccc2cccnc12	-3	nt	nt	0.6
10	CCOc1ccccc1OCCn1ncc2ccc(OC)c(OC)c2c1=O	-3	50	69	1
11	O=C1CCCN1CC(O)CS(=O)(=O)c1ccc(Cl)cc1 (configuration not stated)	5	nt	nt	1
12	Cc1cccc(NS(=O)(=O)c2ccc3nc(-c4ccccc4)[nH]c3c2)c1C	-9	-15	108	1
13	COc1ccc(C(=O)Nc2cc(C(F)(F)F)ccc2-n2cncn2)cc1	2	-1	98	nt
14	O=C(CSc1nnc(-c2ccccc2Br)o1)N1CCN(C(=O)c2ccco2)CC1	-14	nt	nt	0.73

No.	GALR2 agonist	HSV replic up	RGS16-Gao
1	nt	i	97
2	nt	i	97
3	-0.3	i	103
4	nt	i	106
5	nt	i	101
6	nt	i	103
7	nt	i	65
8	0.2	i	nt
9	nt	i	100
10	-1.4	i	100
11	-1.0	i	102
12	1.1	i	109
13	-2.1	nt	98
14	-2.8	i	83

# This part in full, repeating the preview:
No.	smiles	PKD1 inh	Insulin prom inh	Insulin prom inh cell count	HSV replic up primary fold
1	COc1cccc(/C=N/NC(=O)c2cnccn2)c1O	nt	nt	nt	0.9
2	COc1c(O)ccc(C2NC(=O)NC(C)=C2C(=O)Nc2ccccc2C)c1[N+](=O)[O-] (configuration not stated)	-2	nt	nt	1.1
3	COc1ccc(CCNC(=O)COC(=O)c2ccc(Br)o2)cc1OC	-3	14	129	0.95
4	CC1(C)Cc2c(sc(NC(=O)Cc3ccccc3)c2C#N)CO1	nt	nt	nt	0.86
5	CC(=O)Nc1ccc(S(=O)(=O)N(C)CC(=O)N/N=C/c2cccc(O)c2)cc1	-2	nt	nt	1.1
6	CCC(CC)c1nnc(NC(=O)Cc2ccccc2[N+](=O)[O-])s1	1	nt	nt	0.95
7	Cc1ccccc1N(CC(=O)Nc1ccc(S(=O)(=O)N2CCOCC2)cc1)S(C)(=O)=O	4	nt	nt	1
8	CCOP(=O)(OCC)c1nc(-c2ccc(C)cc2)oc1N1CCOCC1	-11	34	51	1
9	Cn1nc([N+](=O)[O-])nc1Sc1cccc2cccnc12	-3	nt	nt	0.6
10	CCOc1ccccc1OCCn1ncc2ccc(OC)c(OC)c2c1=O	-3	50	69	1
11	O=C1CCCN1CC(O)CS(=O)(=O)c1ccc(Cl)cc1 (configuration not stated)	5	nt	nt	1
12	Cc1cccc(NS(=O)(=O)c2ccc3nc(-c4ccccc4)[nH]c3c2)c1C	-9	-15	108	1
13	COc1ccc(C(=O)Nc2cc(C(F)(F)F)ccc2-n2cncn2)cc1	2	-1	98	nt
14	O=C(CSc1nnc(-c2ccccc2Br)o1)N1CCN(C(=O)c2ccco2)CC1	-14	nt	nt	0.73
15	Cc1nnsc1-c1c(C(=O)N2CCOCC2)c(C)nn1-c1ccc(Cl)cc1	nt	nt	nt	1

No.	GALR2 agonist	HSV replic up	RGS16-Gao
1	nt	i	97
2	nt	i	97
3	-0.3	i	103
4	nt	i	106
5	nt	i	101
6	nt	i	103
7	nt	i	65
8	0.2	i	nt
9	nt	i	100
10	-1.4	i	100
11	-1.0	i	102
12	1.1	i	109
13	-2.1	nt	98
14	-2.8	i	83
15	nt	i	99

No.	smiles	PKD1 inh	Insulin prom inh	Insulin prom inh cell count	HSV replic up primary fold
16	Cc1ccc(C)c(OCCSc2nnc(C)c(=O)[nH]2)c1	1	56	104	0.92
17	Cc1nnc(NC(=O)c2ccc(C)c(S(=O)(=O)N3CCOCC3)c2)s1	-2	-30	103	0.86
18	CCn1c(C)c(C(C)=O)cc(C#N)c1=O	2	nt	nt	0.9
19	Oc1cnn(-c2ccccc2)c1	-10	nt	nt	0.79
20	CCOc1ccc2nc(COC(=O)c3ccco3)c(C(C)=O)[n+]([O-])c2c1	-23	-13	96	0.9
21	OC(COc1ccc2ccccc2c1)Cn1ccnc1 (configuration not stated)	-6	nt	nt	0.99
22	CC(=O)OC1C(OC(C)=O)N(C(C)=O)C(=O)N1C(C)=O (configuration not stated)	19	nt	nt	0.99
23	COCCn1ccc(O)c(Cc2ccc(Cl)cc2)c1=O	-8	17	104	0.85
24	CCN(CC(=O)NCc1ccc(F)cc1)C(=O)COc1ccc2ccccc2c1	8	-14	81	1.1
25	O=C(Nc1ccc(Cl)cc1C(=O)Nc1ccncc1)c1ccco1	-3	-7	85	0.83
26	Cc1cc(C)n2c(=S)[nH]nc2n1	8	nt	nt	0.82
27	CCCC1NC(=S)NC(C)=C1C(C)=O (configuration not stated)	-7	-7	103	0.96
28	CC1CCCC(C)N1C(=O)Cn1cc(C#N)c2ccccc21 (configuration not stated)	2	nt	nt	1.1
29	CCOc1cc(NS(=O)(=O)CC)c(OCC)cc1NC(=O)c1ccco1	-1	-45	89	0.84
30	Cc1nc(N2CCC(C)CC2)c2c(C)c(C(=O)Nc3cc(F)ccc3C)sc2n1	1	33	104	0.9

No.	GALR2 agonist	HSV replic up	RGS16-Gao
16	nt	i	99
17	1.1	i	99
18	nt	i	101
19	0.0	i	96
20	-1.5	i	102
21	-0.1	i	107
22	-1.1	i	98
23	-1.8	i	121
24	-0.2	i	83
25	-0.8	i	102
26	-2.5	i	34
27	nt	i	97
28	nt	i	102
29	0.4	i	102
30	nt	i	99

No.	smiles	PKD1 inh	Insulin prom inh	Insulin prom inh cell count	HSV replic up primary fold
31	C/C(=N\Nc1cc(C)nc(-c2ccccc2O)n1)c1ccccc1O	nt	nt	nt	0.72
32	O=C(NC1(C(F)(F)F)C(=O)Nc2c1c(=O)[nH]c(=O)n2-c1ccc(F)cc1)c1cccnc1 (configuration not stated)	-7	-25	218	0.96
33	CC(Sc1nc2c([nH]c3ccccc32)c(=O)n1C)c1ccccc1 (configuration not stated)	-11	-18	151	0.76
34	CCOc1ccc(NC(=O)Cn2cncc2-c2ccc([N+](=O)[O-])cc2)cc1	-4	nt	nt	1
35	CCN(CC)CCN(CC(=O)N(C1CCCCC1)C1CCCCC1)C(=O)c1ccco1	-5	-7	108	0.89
36	OCCN(CCO)Cc1ccc(Br)cc1	0	-35	119	1.3
37	Nc1nc2ccc(-c3nc4ccccc4o3)cc2s1	-1	-62	84	0.88
38	CCCSc1nnc2c(n1)OC(c1cccn1C)N(C(C)=O)c1ccccc1-2 (configuration not stated)	-1	nt	nt	0.86
39	CC1CCN(C(NC(=O)c2ccco2)C(=O)c2ccccc2)CC1 (configuration not stated)	-1	12	134	0.96
40	O=C(NC(=S)Nc1ccc(C(F)(F)F)cc1)c1csnn1	-2	nt	nt	1.1
41	CCN1CCCC1CNC(=O)CSc1cc(=O)n(CC)c2ccccc12 (configuration not stated)	1	nt	nt	1.2
42	COC(=O)/C=C/c1ccccc1S(=O)(=O)N(Cc1ccccc1)Cc1ccco1	nt	nt	nt	0.62
43	Cn1nc(-c2ccc(Cl)cc2)c2cc(C(=O)N3CCN(c4ccccn4)CC3)sc21	0	nt	nt	0.75
44	CCOC(=O)c1oc2cc(O)ccc2c(=O)c1-c1ccccc1OC	2	-19	116	0.85
45	O=C(CSc1nc(-c2ccc(F)cc2)nc2c1Cc1ccccc1O2)Nc1cccc(C(=O)O)c1	0	nt	nt	1.1

No.	GALR2 agonist	HSV replic up	RGS16-Gao
31	nt	i	73
32	-1.4	i	94
33	nt	i	113
34	-0.8	i	107
35	nt	i	101
36	-1.7	i	109
37	-0.4	i	100
38	0.9	i	108
39	-2.8	i	94
40	nt	i	100
41	-0.8	i	85
42	nt	i	104
43	1.1	i	102
44	-2.1	i	93
45	nt	i	102

No.	smiles	PKD1 inh	Insulin prom inh	Insulin prom inh cell count	HSV replic up primary fold
46	O=[N+]([O-])c1ccc2c(c1)N([O-])C1(CCCCC1)[N+]2=O	nt	nt	nt	0.87
47	O=C1Oc2ccccc2C(=O)/C1=C\N1CCN(c2ccccc2)CC1	-8	nt	nt	0.96
48	C=CCc1cccc(/C=N/n2cnnc2)c1O	-4	nt	nt	0.75
49	CCCCC(NC(C)=O)c1nc2ccccc2n1CCCC (configuration not stated)	-2	nt	nt	nt
50	CS(=O)(=O)N1CCN(c2ccc([N+](=O)[O-])c3cccnc23)CC1	nt	nt	nt	0.88
51	CC(=O)COc1ccc2c3c(c(=O)oc2c1C)CCCCC3	-6	30	161	0.79
52	CCCOc1ccc(C(=O)O/N=C(\CC)c2ccc(C)cc2)cc1	-1	23	134	0.93
53	CCc1ccc(NC(=S)NC2CC3CCCC(C2)N3Cc2ccccc2)cc1 (configuration not stated)	2	nt	nt	0.74
54	COc1cc(-c2n[nH]c(=O)o2)cc(OC)c1OC	1	41	78	0.9
55	O=C(C1CCN(C2CCN(Cc3cccc4c3OCO4)CC2)CC1)N1CCOCC1	6	nt	nt	1.1
56	COc1ccc(F)cc1C(=O)C1CCCN(C(=O)c2ocnc2C)C1 (configuration not stated)	-4	nt	nt	0.86
57	CCOc1ccc(C2NC(=O)C(C#N)=C(S)N2c2ccc(OC)cc2)cc1OC (configuration not stated)	5	80*	20*	1
58	CCCCOC(=O)Nc1ccccc1C(=O)N1CCCC1	-6	0	117	0.95
59	O=C(Nc1ccn(Cc2c(F)c(F)c(F)c(F)c2F)n1)c1cccc(Cn2cc([N+](=O)[O-])cn2)c1	1	0	91	1.1
60	COc1cc2c(cc1NC(=O)c1cc(-c3ccncc3)nc3ccc(C)cc13)oc1ccccc12	-9	nt	nt	1.1

No.	GALR2 agonist	HSV replic up	RGS16-Gao
46	nt	i	32
47	nt	i	96
48	-1.8	i	98
49	-1.2	nt	108
50	nt	i	94
51	1.4	i	103
52	-0.1	i	98
53	nt	i	103
54	-1.6	i	101
55	nt	i	103
56	nt	i	98
57	-1.1	i	111
58	-0.7	i	111
59	0.2	i	107
60	-2.1	i	99

No.	smiles	PKD1 inh	Insulin prom inh	Insulin prom inh cell count	HSV replic up primary fold
61	COC(=O)C1C(=O)c2c([nH]c(C(=O)OC3CCCCC3)c2C)CC1C (configuration not stated)	-3	-29	139	1.2
62	O=C1CCCc2c1cc(C(=O)Nc1ccc(Br)cn1)c(=O)n2-c1ccccc1	-6	nt	nt	1.1
63	COc1ccc(C)cc1NC(=O)C(OC(=O)CNC(=O)c1ccc(Br)cc1)c1ccccc1 (configuration not stated)	-5	-15	30	0.8
64	CC1(C)CC(=O)c2cn3ncnc3nc2C1	-10	-23	149	0.82
65	COc1cc(NCCCC(C)N)c2ncccc2c1 (configuration not stated)	2	-44	69	0.74
66	O=C(O)COc1c(F)c(F)c(C(F)(F)F)c(F)c1F	nt	nt	nt	0.98
67	COC(=O)c1[nH]c2c(c1C)C(=O)CC(c1ccc(C)cc1)C2 (configuration not stated)	-5	-17	116	0.87
68	O=C(CNC1CCCCC1)NN=C(c1ccccc1)c1ccccc1	-8	-113	104	0.94
69	Cc1ccc(C)c(-n2cc(CN3CCNC(=O)CC3)c(-c3ccccc3)n2)c1	4	nt	nt	0.96
70	CCOc1ccc(C2CC(=O)n3nc(C45CC6CC(CC(C6)C4)C5)nc3S2)cc1OC (configuration not stated)	-4	7	76	1

No.	GALR2 agonist	HSV replic up	RGS16-Gao
61	0.1	i	98
62	-0.8	i	104
63	-3.1	i	104
64	-0.6	i	99
65	0.6	i	104
66	nt	i	105
67	-0.2	i	98
68	nt	i	102
69	nt	i	96
70	-1.5	i	100

# This is a random part of the collection. About 1.3% of those tested had a hit in this group.
